# Source: PubChem BioAssay (National Center for Advancing Translational Sciences (NCATS))
# VDR inh: Inhibitors of the vitamin D receptor (VDR): qHTS; Vitamin D3 receptor (Homo sapiens), P11473; VDR-SRC2-3 peptide fluorescence polarization, 2 h; Potency, µM, for inactives: max response, negative = inhibition, most hits filed as inhibitors; hit rate 0.93% among 400,000; AID 504847, 2011; active = well fitted inhibition curve with a large enough effect; inconclusive = small, poorly fitted or top-dose-only effect, or another doubt; inactive = no such curve, though single readings can be large or run the other way; also: series mostly up to about 120 µM
# Target sequence (P11473 whole entry, looked up): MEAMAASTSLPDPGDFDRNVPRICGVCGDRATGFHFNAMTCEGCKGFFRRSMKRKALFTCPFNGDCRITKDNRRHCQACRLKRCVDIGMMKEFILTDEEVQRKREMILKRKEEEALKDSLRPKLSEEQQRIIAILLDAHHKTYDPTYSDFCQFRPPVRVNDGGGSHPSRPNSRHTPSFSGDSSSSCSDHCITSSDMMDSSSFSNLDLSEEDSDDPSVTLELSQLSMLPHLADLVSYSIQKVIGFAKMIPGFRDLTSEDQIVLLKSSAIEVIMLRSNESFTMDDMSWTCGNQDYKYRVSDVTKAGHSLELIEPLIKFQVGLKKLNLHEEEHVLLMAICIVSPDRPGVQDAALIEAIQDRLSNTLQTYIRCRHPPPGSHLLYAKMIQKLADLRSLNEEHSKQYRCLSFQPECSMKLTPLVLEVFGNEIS
#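 Fluorescence polarization assay measuring small-molecule disruption of VDR binding to the coregulator peptide SRC2-3. Compounds were pin-transferred (23 nl) into the reagent mix and incubated 2 h at room temperature before reading.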
# The depositor's hits bear a star; ? = inconclusive; & = joins results of further samples. % is scaled to controls: 0 for no effect and ±100 for the full control effect; potency is read from the fitted curve at half-maximal effect. An excerpt, so the mix of outcomes need not match the whole.
Structure | VDR inh
CCCCNC1=CC(=O)C(=O)c2ccccc21 | ?
Cc1nn(C(C)C(=O)NCc2cccs2)c(=O)c2nn(-c3ccccc3)c(C)c12 (stereo not given) | -3%
COc1ccc(S(=O)(=O)N2CCC(C(=O)N3CCCC3)CC2)cc1Cl | 12%
CC(C)Sc1nc2[nH]ncc2c(=O)[nH]1 | 10%
Cc1ccc2c(Cl)c(C(=O)NCCc3ccccc3)sc2c1 | -26%
CCOc1ccc(C(C)NC(=O)c2ccccc2F)cc1 (stereo not given) | -20%
COc1ccc(Br)cc1S(=O)(=O)N1CCN=C1c1ccccc1 | 6%
CSCCC(NC(=O)c1ccc(=O)n(C)n1)c1nc2ccccc2[nH]1 (stereo not given) | -7%
COc1ccccc1/C=N/NC(=O)C(NC(=O)c1ccccc1)=C(C)C | -3%
CCc1ccc(OC(C)C(=O)Nc2ccc(S(=O)(=O)Nc3cc(C)on3)cc2)cc1 (stereo not given) | -7%
O=C1NC2(CCCCC2)C(=O)N1Cc1cccc(C(F)(F)F)c1 | -9%
Cc1ccc(CC2CC(=O)N(c3cc(Cl)ccn3)C2=O)cc1 (stereo not given) | 2%
CCOC(=O)c1[nH]c(C)c(C(=O)OCC(=O)Nc2sc3c(c2C#N)CCCCC3)c1C | -2%
CSc1ccc(CCNC(=O)c2nn(C)c3c2CS(=O)(=O)c2ccccc2-3)cc1 | 14%
CC(C)c1ccc(C(=O)NN2C(=O)C3CCCCC3C2=O)cc1 (stereo not given) | -7%
O=C(COC(=O)c1ccc(OC(F)F)cc1)NCc1cccs1 | -7%
CC(C)OCCCNC(=O)c1ccc(CS(=O)(=O)Cc2ccccc2F)o1 | 5%
COc1ccccc1NC(=O)C(C/C=C(/C)Cl)C(C)=O (stereo not given) | 14%
Cc1sc2ncnc(N3CCC(C(=O)N(C)CC(=O)Nc4ccccc4Br)CC3)c2c1C | 13%
Cc1ccc(C)c(SCC(=O)OCC(=O)NCc2ccccc2)c1 | 17%
CCOC(=O)C(C)NC(=O)C1CCN(c2ncnc3c2nc2n3CCCCC2)CC1 (stereo not given) | -2%
Cc1cccc(N2C(=O)CC(N3CCC(c4nc5ccccc5[nH]4)CC3)C2=O)c1 (stereo not given) | 6%
O=C(OCc1cc(=O)n2ccsc2n1)c1ccc(OC(F)F)cc1 | 3%
O=C(COC(=O)c1ccccc1NCCO)Nc1cccc(S(=O)(=O)NC2=NCCCCC2)c1 | 0%
O=C(c1ccc(Br)o1)N1CCN(C/C=C/c2ccccc2)CC1 | 5%
CN1CCc2c(sc(/N=C/c3cc(C(C)(C)C)ccc3O)c2C#N)C1 | 9%
O=C(COC(=O)Cn1cnc2ccccc2c1=O)NCCC1=CCCCC1 | -6%
Cc1ccccc1S(=O)(=O)N1C[C@H]2CON(C)[C@H]2C[C@H]1c1cccc(-c2ccccc2)c1 | -30%
CCCSc1ncc(Cl)c(C(=O)Nc2ccc(S(=O)(=O)Nc3ncccn3)cc2)n1 | -3%&9%
CC(C)(CO)NCC(O)COc1ccc2c(c1)CCC2 (stereo not given) | -24%

# (listing goes on)
Structure | VDR inh
O=C1c2ccccc2C(=O)N1Cc1cc(-c2ccc(Cl)cc2)no1 | -5%
Cc1ccc(Sc2c(C=O)c3ccccc3n2C)cc1 | 3%
CCn1ncc(Br)c1C(=O)Nc1cc([N+](=O)[O-])ccc1C | 1%
Cc1noc(C)c1COc1ccc(C(=O)N2CCN(c3ccccc3F)CC2)cc1 | 9%
O=C(Oc1cccc([N+](=O)[O-])c1)c1cc(-c2ccccc2)nc2ccccc12 | -1%
COc1ccc(OC)c(NC(=O)C2CCCC2)c1 | -11%
CSc1nc(N(C)C)nc(N2CC(=O)N(CCNS(=O)(=O)c3ccc(C)cc3)C2=N)n1 | -2%
C[C@H](CO)N1C[C@H](C)[C@@H](CN(C)S(=O)(=O)c2ccc(F)cc2)Oc2ccc(NC(=O)NC3CCCCC3)cc2C1=O | -1%
COc1ccc2[nH]cc(CCNc3ccnc(-c4ccoc4)n3)c2c1 | -27%
COc1cccc(Nc2ncc3ncc(=O)n(Cc4ccc(F)cc4)c3n2)c1 | -4%
Cc1cc(-c2onc(C)c2C(=O)Oc2ccc(Cl)cc2)no1 | -1%
COc1ccc(CC(=O)NCc2cn3ccsc3n2)cc1 | 2%
Cc1[nH]c(SCC(=O)Nc2cc(C(N)=O)cc(C(N)=O)c2)nc1Cc1ccccc1 | -9%
O=C(Nc1cccc(S(=O)(=O)N2CCCCC2)c1)C1CCCC1 | -9%
O=c1c2ccccc2nc2n1-c1ccccc1CCC2 | 10%
COc1ccccc1N1C(=O)c2cccc3cccc(c23)C1=O | -22%
CCOC(=O)c1cc(CC)sc1NC(=O)COC(=O)c1cc[n+]([O-])cc1 | 3%
O=C(Nc1ccc(-c2nc3ccccc3s2)c(OC(=O)c2ccccc2)c1)c1ccccc1 | 7%
COc1ccc(Cc2nc3c4cnn(-c5cccc(F)c5)c4ncn3n2)cc1 | -3%
O=C(CN1C(=O)C2CC=CCC2C1=O)OCc1cc(=O)n2cc(Br)ccc2n1 (stereo not given) | -16%
C[C@]12CC[C@@H]3c4ccc(O[C@@H]5O[C@H](C(=O)O)[C@@H](O)[C@H](O)[C@H]5O)cc4CC[C@H]3[C@@H]1C[C@@H](O)[C@@H]2O | -14%
CCOC(=O)c1c(C)[nH]c(CCC(=O)NCc2cc(OC)c(OC)c(OC)c2)c1C | 11%
CCc1cc(C(=O)N2CCN(c3ncccn3)CC2)sc1C | -11%
O=C(CCN1C(=O)C2CCCCC2C1=O)Nc1ccc(Br)cc1F (stereo not given) | 17%
Cc1c(NC(=O)COC(=O)c2ncc(Cl)c(Cl)c2Cl)c(=O)n(-c2ccccc2)n1C | -10%
C=CCNC(=O)c1ccc(CN(c2ccc(OCC)cc2)S(=O)(=O)c2ccc(C)cc2)cc1 | 13%
COc1ccc(/C=N/n2cnc3c([nH]c4ccc(F)cc43)c2=O)cc1CN1CCCC1 | -17%
O=c1[nH]c(=S)[nH]cc1Oc1ccccc1 | -15%
CCN(CC)S(=O)(=O)c1ccc2c(c1)nc(SC(C)C(=O)NCC1CCCO1)n2CC (stereo not given) | -22%
O=C(NC1CCCC1)C(c1cccnc1)N(Cc1ccccc1)C(=O)c1csnn1 (stereo not given) | 5%

# Later entries
Structure | VDR inh
Cc1nn(Cc2cccc(C(=O)Nc3ccn(Cc4ccccc4F)n3)c2)c(C)c1[N+](=O)[O-] | 8%
Cc1ccc(Cl)cc1N1CCN(CC(=O)Nc2ccc(CN3CCCCC3)cc2)CC1 | -12%
COc1cccc(/C=C/C(=O)c2ccc3c(c2)OCO3)c1OC | -19%
Cc1cccc(CNC(=O)c2ccc3nc(Cc4ccccc4F)oc3c2)n1 | 5%
CCn1cc(S(=O)(=O)CC(=O)Nc2ccc(C)cc2)c2ccccc21 | -7%
COc1ccccc1CC1(C)NC(=O)N(CC(=O)N2CCc3ccccc3C2)C1=O (stereo not given) | -11%
CCCn1c(=NC(=O)c2ccncc2)c(C#N)cc2c(=O)n3cccc(C)c3nc21 | -21%
CCOC(=O)CCNCC1COc2ccccc2O1 (stereo not given) | -17%
C=CC(=O)NC(C)(C)CCN1CCOCC1 | ?
COC(=O)c1ccccc1NC(=S)NC(=O)c1ccccc1 | -18%
O=C(COc1ccc(F)cc1Br)NCC1COc2ccccc2O1 (stereo not given) | 2%
N/C(=N\OC(=O)COc1ccc2ccccc2c1)c1ccncc1 | -5%
COc1ccccc1CNC(=O)c1ccc(Cn2c(SCc3ccccc3)nc3cccnc32)cc1 | 9%
COc1cc([N+](=O)[O-])ccc1NC(=O)CSc1nccn1C | -16%
C/C(=N/NS(=O)(=O)c1ccc(C)c(C)c1)c1ccncc1 | -7%
O=c1c(Cl)c2oc3ccccc3nc-2c2ccccc12 | 0%
O=C(Nc1cc(Cl)ccc1-n1cncn1)c1ccc([N+](=O)[O-])o1 | 12%
Cc1nccc(-c2cccc(NC(=O)Nc3ccc(Cl)cc3)c2)n1 | 7%
CCCCOc1ccc(N(CC(=O)NC(C)C)C(=O)CCC(=O)Nc2ccccn2)cc1 | 2%
CCOC(=O)c1ccc(NC(=O)CC2C(=O)N(c3ccc(F)cc3)C(=O)N2Cc2cccnc2)cc1 (stereo not given) | 3%
O=C(c1cc(F)c(F)cc1Cl)N1CCN(c2ccc([N+](=O)[O-])c3ncccc23)CC1 | -12%
O=C(NC12CC3CC(CC(C3)C1)C2)C1=COCCO1 | 9%
Cc1cccc(Cn2nc(C(C)(C)C)cc2C(=O)N2CCOCC2)c1 | 16%
CN(C)S(=O)(=O)c1ccc(NC(=O)CCNC(=O)c2ccco2)cc1 | 13%
c1ccc2c(c1)CC1(CCCCC1)n1nnnc1-2 | 13%
CC(C)NCC(O)COc1c(F)cc(Br)cc1F (stereo not given) | -1%
Cc1c(Cl)cccc1NC(=O)CNC(=O)c1ccc2c(c1)OCCO2 | 3%
COc1ccc(C(=O)CSc2nnc3ccccn23)cc1OC | -8%
CCC1Sc2ccc(S(=O)(=O)N3CCN(c4ccccc4)CC3)cc2NC1=O (stereo not given) | ?
CCN(CC)C(=O)[C@H]1CC(CC(=O)NCCCN(C)C)C(=O)N2CCc3c([nH]c4ccc(OC)cc34)[C@]12C (stereo not given in full) | -21%

# In the list so far, six contain a nitro group on carbon.
Structure | VDR inh
CCn1ncc(Br)c1C(=O)Nc1cc([N+](=O)[O-])ccc1C | 1%
O=C(Oc1cccc([N+](=O)[O-])c1)c1cc(-c2ccccc2)nc2ccccc12 | -1%
Cc1nn(Cc2cccc(C(=O)Nc3ccn(Cc4ccccc4F)n3)c2)c(C)c1[N+](=O)[O-] | 8%
COc1cc([N+](=O)[O-])ccc1NC(=O)CSc1nccn1C | -16%
O=C(Nc1cc(Cl)ccc1-n1cncn1)c1ccc([N+](=O)[O-])o1 | 12%
O=C(c1cc(F)c(F)cc1Cl)N1CCN(c2ccc([N+](=O)[O-])c3ncccc23)CC1 | -12%

# Next part
Structure | VDR inh
COc1ccccc1-c1c(C(F)(F)F)oc2c(CN(C)C)c(O)ccc2c1=O | -9%
CCOC(=O)N1CCC(NC(=O)c2cc(C)c3c(C)nn(-c4ccccc4)c3n2)CC1 | -9%
Cc1cc(NC(=O)C(C)Sc2nnc(NCc3ccco3)s2)no1 (stereo not given) | -5%
COc1ccc(OCCN2CCN(C(=O)c3ccc(OC)cc3)CC2)cc1 | 4%
CCCNC(=O)c1cnn2c(C)c(Cc3c(C)cc(C)cc3C)c(C)nc12 | 1%
Cc1nc(C)c(C(=O)NCCC(c2ccccc2)c2ccccc2)o1 | 15%
Cn1cc(S(=O)(=O)Nc2ccc(F)cc2F)c(=O)n(C)c1=O | 10%
CCOC(=O)c1c(NS(=O)(=O)c2cccc(OC)c2)sc2c1CCC2 | -2%
O=C(Cc1ccc(Cl)cc1)NCC(=O)N1CCN(Cc2ccccc2)CC1 | 2%
O=C(NN=C1CCCCC1)c1cc(-c2ccccc2)n[nH]1 | 6%
CCc1nnc(NC(=O)CCC(=O)N2CCN(c3ccccn3)CC2)s1 | -12%
COC(=O)C1=C(c2ccc(OC)cc2)OC(=O)C1(C)C | -14%
O=C(C1=C(O)C(=O)N(CCN2CCOCC2)C1c1cccc(Br)c1)c1cc2ccccc2o1 (stereo not given) | -17%
C[C@H]1COC(=O)[C@H](Cc2ccc(F)cc2)C/C=C\C[C@@H](CC(=O)NCCO)C(=O)N1 | -15%
O=C(COC(=O)CNC(=O)c1cccs1)Nc1ccccc1C(F)(F)F | -24%
Cn1c(CCC(=O)Nc2ccc(N3CCOCC3)cc2)nc(=O)c2ccccc21 | 2%
CNCc1sccc1C | 8%
Cc1cc(C)n(CC2CC(=O)N(c3ccc(F)c(Cl)c3)C2=O)n1 (stereo not given) | -2%
CCOC(=O)c1c(C)c(-c2ccccc2)n(CC(=O)Nc2ccc(OCC)cc2)c1C | -2%
O=C(COc1ccc2ccccc2c1)NC1CC1 | -3%
CCOc1ccc(S(=O)(=O)N2CCN(Cc3ccccc3)CC2)c2cccnc12 | 6%
CCOc1ccc2cc(/C=C/C(=O)c3ccco3)c(Cl)nc2c1 | ?
C[C@@H]1CN([C@H](C)CO)C(=O)c2cc(NC(=O)C3CCCCC3)ccc2O[C@@H]1CN(C)Cc1ccc(C(F)(F)F)cc1 | 5%
CN1CCc2c(sc3nc(NCCO)n(-c4cccc(Cl)c4)c(=O)c23)C1 | -14%
COc1ccc(C(=O)CCN2CCCCCC2)cc1 | 28µM*
CCOC(=O)N1CCN(CC(=O)N2c3ccccc3CCc3ccccc32)CC1 | 6%
CCCCCn1c(-c2ccc(OC)c(OC)c2)nc2ccccc21 | 0%
CCCSc1nc(C)cc(C)c1C(N)=O | 4%
COc1ccc(CC(=O)Nc2cc(C)on2)cc1 | 18%
CCOC(=O)c1[nH]c2ccccc2c1NC(=O)c1ccc(OC)c(OC)c1 | 17%

# (listing goes on)
Structure | VDR inh
Cc1cccc(C)c1Nc1nnc(SCC(=O)Nc2ncc(C(F)(F)F)cc2Cl)s1 | ?
N#Cc1cc(-c2ccccc2)oc1NC(=O)c1ccco1 | 5%
CCCn1nnc(NC(=S)NC(=O)c2cccs2)n1 | -18%
CC(C)CC(NC(=O)C(NC(=O)OC(C)(C)C)C(C)C)C(N)=O (stereo not given) | -20%
Cn1ccc(=NC=C(C#N)C#N)c2ccccc21 | 4%
NC1=NC(=O)C(c2ccccc2)(c2ccccc2)S1 | 1%
Nc1cccc(-c2cn3cccnc3n2)c1 | -21%

# Shown with each value named: two of the compounds above.
Cc1cccc(C)c1Nc1nnc(SCC(=O)Nc2ncc(C(F)(F)F)cc2Cl)s1
  VDR inh: ?
N#Cc1cc(-c2ccccc2)oc1NC(=O)c1ccco1
  VDR inh: 5%
